Screening data from PubChem.
D2 PAM: potentiates the human D2 dopamine receptor allosterically. DiscoveRx D2 beta-arrestin cells, luminescence, 90 min; 100% = 57 uM dopamine signal. actives 0.23% (n = 360,000). P14416. potentiation, % (concentration not given with the values); active = potentiation of 50% or more; inconclusive = 30% to 50%; inactive = 30% or less;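 note: compound concentration not given in the record; tested on top of an EC20 dose of dopamine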
Target sequence (P14416 whole entry, looked up): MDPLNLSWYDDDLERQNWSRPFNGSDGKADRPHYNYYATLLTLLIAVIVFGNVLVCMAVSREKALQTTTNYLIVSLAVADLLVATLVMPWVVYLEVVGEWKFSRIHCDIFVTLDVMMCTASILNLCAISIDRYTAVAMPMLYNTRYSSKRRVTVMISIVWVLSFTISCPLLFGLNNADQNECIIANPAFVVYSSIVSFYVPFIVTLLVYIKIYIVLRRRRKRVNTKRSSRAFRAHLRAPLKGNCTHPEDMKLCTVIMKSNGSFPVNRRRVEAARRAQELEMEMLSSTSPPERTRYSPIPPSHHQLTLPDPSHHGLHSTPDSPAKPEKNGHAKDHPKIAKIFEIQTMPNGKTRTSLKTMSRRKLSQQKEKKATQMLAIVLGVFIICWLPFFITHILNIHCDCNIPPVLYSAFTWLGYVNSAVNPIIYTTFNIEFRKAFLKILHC
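PathHunter D2 cells, attached overnight at 37 deg C, received compound in DMSO plus dopamine at EC20 (50 nM final) for 90 min at 37 deg C. Beta-arrestin recruitment was read as luminescence after 1 h with detection reagent at ambient temperature.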
Six1-Eya2 inh: blocks human Six1 binding to Eya2. Q15475+O00167. AlphaScreen GST-Six1/His-Eya2 binding, biochemical; stronger effect = lower value; control for the full effect not named in the record. activity change, % (no concentration beside the values). actives 0.56% (n = 360,000). AID 651725; in the data active = activity change below about -65%; inconclusive = about -30% to -65%; inactive = above about -30%; note: % is set by controls: 0 for no effect and ±100 for the full control effect; compound concentration not given in the record
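Six1/Eya2 binding was read as AlphaScreen signal after compounds were pinned into GST-Six1 plus His-tagged Eya2 (5X stock 250/500 nM) in pH 8.0 Tris/NaCl/TCEP buffer, beads added, then incubated 1 h, 37 C, dark.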
gsp agonist: activates gsp, the McCune-Albright syndrome mutation | gsp mutant cells, cAMP HTRF, 30 min; control for the full effect not named in the record | Potency, µM (titrated, usually from 76.9 µM), for the others: at the highest dose activation (cAMP increase), hits mostly activators | actives 0.13% (n = 340,000) | AID 624287; active = well fitted activation curve with a large enough effect; inconclusive = small, poorly fitted or top-dose-only effect, or another doubt; inactive = no such curve, though single readings can be large or run the other way; cell line not stated here;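 note: phosphodiesterase inhibitor Ro 20-1724 added with compounds to block cAMP breakdown; potency is the fitted concentration of half-maximal effect; nearly all actives have a fitted effect of over 60% in size; about a fifth of the inactives were tested at one dose only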
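Cells in DMEM/10% FBS with G418 were pretreated with compounds in DMSO plus […] (300 uM stock) for 30 min at 37C. cAMP was measured by HTRF (cAMP-d2 plus anti-cAMP antibody-K) after 30 min at room temperature.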
CtBP-E1A inh: blocks the CtBP interaction with E1A | AlphaScreen GST-E1A/His-CtBP binding, 1536-well; stronger effect = lower value; control for the full effect not named in the record | actives 0.49% (n = 340,000) | activity change, % (no concentration beside the values); in the data active means activity change below about -65%; inconclusive means about -30% to -65%; inactive means above about -30%; note: % is set by controls: 0 for no effect and ±100 for the full control effect; compound concentration not given in the record
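In 5 uL wells, 23 nL compound meets equimolar GST-E1A and His-CtBP (5X stock 125 nM each) for 2 h, 37 °C. Beads (5X, 50 ug/mL) then 1 h, 37 °C, dark.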
D2 agonist: agonists of human D2 dopamine receptor (beta-arrestin); P14416; AID 624465; DiscoveRx PathHunter D2 beta-arrestin, luminescence, 90 min; 100% = 57 uM dopamine signal; activation, % (concentration not given with the values); actives 0.084% (n = 360,000); in the data active = activation above about 40%; inconclusive = about 15% to 40%; inactive = below about 15%; note: compound concentration not given in the record; the text of the record calls up to 30% inactive
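Agonist mode: compounds alone added to overnight-plated D2 PathHunter cells for 90 min at 37 C, with 57 uM final dopamine (EC100) defining full response. Beta-arrestin recruitment detected by chemiluminescent reagent, read after 1 h at ambient temperature.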
gsp antagonist: antagonizes gsp, the McCune-Albright syndrome mutation; Potency, µM (titrated, usually from 76.9 µM), for the others: at the top dose activity change, negative = inhibition, actives largely listed as inhibitors; gsp-mutant cells, cAMP HTRF, 30 min; control for the full effect not named in the record; AID 624288; actives 0.4% (n = 340,000); active = falling curve of any shape with a large fitted effect; inconclusive = falling curve, mostly with a smaller effect; inactive = flat or rising curve; cell line not stated here;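 note: intracellular cAMP measured with PDE inhibitor Ro 20-1724 present during compound exposure; potency is the fitted concentration of half-maximal effect; % is set by controls: 0 for no effect and ±100 for the full control effect; nearly all actives have a fitted effect of over 65% in size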
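Measurement of cellular cAMP by homogeneous time-resolved fluorescence following a 30 min compound exposure at 37C. The PDE inhibitor […] was present throughout; the assay buffer was DPBS with 0.05% BSA and 0.005% Tween 20.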
The depositor's hits bear a star; u = inconclusive; x = no result given; [ ] = another dose, or the depositor's remark.

Structure,D2 PAM,Six1-Eya2 inh,gsp agonist,CtBP-E1A inh,D2 agonist,gsp antagonist
CCOC(=O)N/N=C(/C)c1cccc(-n2cnnn2)c1,-36.7,2.2,2.2%[15.4 µM],2.1,-7.0,x
CC(C)NS(=O)(=O)c1ccc(OCC(=O)NCc2ccccc2)cc1,-3.3,6.0,1.8%,3.8,2.6,9.4%
COc1ccccc1CNc1nc(NCc2ccc(C(C)C)cc2)c2sccc2n1,-17.9,-7.6,x,-13.5,-5.0,x
CCOC(=O)c1c(C)[nH]c(C)c1C(=O)COC(=O)Cc1n[nH]c(=O)c2ccccc12,-1.4,-8.4,28.2%,1.7,-0.3,13.3%
O=C(NCc1cccnc1)c1cccn1-c1ncc(C(F)(F)F)cc1Cl,-4.5,-0.3,10.6%[15.4 µM],0.0,-5.6,-14.4%
CC(=O)c1ccc(NC(=S)N2CCCC(CO)C2)cc1 (stereo not drawn),2.4,11.9,-9.5%[15.4 µM],-8.8,-4.0,6.0%
Cc1nn(CC(=O)Nc2ccccn2)c(=O)c2ccccc12,-3.8,6.1,7.0%,-2.9,-2.8,-1.2%
CCc1nnc(NC(=O)c2cc(-c3cccnc3)nc3ccccc23)s1,-1.2,-0.9,-41.4%[inhibitor],x,-1.2,-14.9%
Cc1ccccc1N1CCN(C(=O)c2ccccc2NC(=O)c2ccccc2C(=O)O)CC1,-3.7,-13.9,-16.0%[15.4 µM],x,-0.2,-3.0%
Cc1ccccc1N1CCN(CCC(=O)Nc2ccc(F)cc2)CC1,-73.9,3.0,-29.2%,x,1.5,3.5%
Cc1ccc(N2C(=O)C3CC(c4ccccc4)=C4C5C=CC(C6C(=O)N(c7ccc(C)cc7)C(=O)C56)C4C3C2=O)cc1 (stereo not drawn),-14.9,-8.0,-0.4%[15.4 µM],19.5,-0.8,-2.0%
O=C(NC(=S)NCCO)c1sc2ccccc2c1Cl,-14.7,3.7,-1.1%,2.4,-5.8,-7.7%

The list goes on:
Structure,D2 PAM,Six1-Eya2 inh,gsp agonist,CtBP-E1A inh,D2 agonist,gsp antagonist
COc1cccc(NC(=O)[C@H](NC(=O)[C@@H]2Cc3ccccc3CN2)c2ccccc2)c1,-29.4,-4.7,25.3%,1.4,-1.7,-1.1%
COc1ccc(Nc2cc(C)nc(-n3nc(C)cc3C)n2)cc1,-14.6,u,-21.8%,u,-3.5,12.4%
CC(C)C[C@@H](CNCC(=O)[C@H](CC(=O)O)NC(=O)c1[nH]cnc1C(=O)N[C@H](CN)CC(C)C)NC(=O)c1nc[nH]c1C(=O)N[C@@H](C)C(=O)O,-9.0,-4.3,x,-7.1,-4.4,7.5%
CCOC(=O)C1=C(C(F)(F)F)Nc2ncnn2C1c1ccc(OC)cc1OC (stereo not drawn),-4.1,9.1,-29.7%,1.1,-3.0,-15.1%
CC(C)(C)c1ccc(C(=O)c2c[nH]c(C(=O)NCCCN3CCOCC3)c2)cc1,-9.9,-0.7,21.0%,1.9,-1.6,9.0%
Brc1cccc(CN2CCCCCCC2)c1,-15.2,8.9,-56.1%[inhibitor],9.6,-2.8,-6.0%
Cc1c(NS(=O)(=O)c2cc(C(=O)O)ccc2Cl)c(=O)n(-c2ccccc2)n1C,-5.4,11.2,-22.8%,3.9,-1.6,-12.4%
Nc1ncn([C@@H]2O[C@H](CO)[C@@H](O)[C@H]2O)c(=O)n1,-0.7,7.8,x,-1.1,-1.6,3.9%
O=C(NC1CCCCC1)C1CCCN1C(=O)NCc1ccccc1 (stereo not drawn),-4.2,-3.2,-49.7%[inhibitor],-6.0,-2.0,7.3%
COc1cc(C#Cc2ccc3cc(CCCO)oc(=O)c3c2)cc(OC)c1,15.0,-2.4,x,4.7,1.2,9.6%
S=C(NCC1CCCO1)N1CCc2ccccc2C1 (stereo not drawn),-11.6,3.3,29.1%,2.9,-6.5,10.8%
CN1CCN(Cc2cc(COCc3ccccc3)c3cccnc3c2O)CC1,-43.9,-88.8*,4.7%[15.4 µM],-94.2*,-14.8,16.4%

Next results follow:
Structure,D2 PAM,Six1-Eya2 inh,gsp agonist,CtBP-E1A inh,D2 agonist,gsp antagonist
COc1cc(/C=N/Nc2ncnc3sc4c(c23)CCC4)ccc1O,3.8,-67.9*,-30.3%[inhibitor],-82.7*,7.8,-0.2%
Cn1nc(C(C)(C)C)cc1C(=O)Sc1cccc(Br)c1,-9.3,13.4,12.4%[15.4 µM],3.7,-2.0,4.0%
O=[N+]([O-])c1ccc(OCCO)c(P(=O)(c2ccccc2)c2ccccc2)c1,-0.6,5.9,-3.3%[15.4 µM],1.4,-3.6,1.5%
Cc1ccc(NS(=O)(=O)c2ccc(-c3ccc(=O)[nH]n3)o2)cc1Cl,-8.3,-3.7,-5.0%,-18.5,5.6,-3.5%
O=C(c1ccco1)N1CCN(C2CN(Cc3cn(Cc4ccccc4C(F)(F)F)nn3)S(=O)(=O)C2)CC1 (stereo not drawn),-6.0,5.8,x,5.3,-1.7,x
CN1C(=O)c2cccc3c(N)ccc(c23)C1=O,-25.7,-25.7,u,x,-5.7,-5.5%
NS(=O)(=O)c1ccc(CCNC(=O)C2CCCCN2S(=O)(=O)c2ccccc2)cc1 (stereo not drawn),6.0,4.5,-1.2%,2.8,12.8,6.7%
CCn1c(C(C)NC(=O)c2cccc(C)c2)n[nH]c1=S (stereo not drawn),-6.2,3.8,u,1.4,-4.5,3.9%
O=c1[nH]c2cnn(-c3ccccc3)c2c(=O)n1O,-16.9,-14.2,-2.3%,3.3,-4.7,-18.9%
COc1ccc(C2(C(=O)O)CCCC2)cc1,0.8,7.1,-10.5%,4.1,-5.1,6.6%
Cc1ccc(S(=O)(=O)Oc2ccc(C(c3c(C)[nH][nH]c3=O)c3c(C)[nH][nH]c3=O)cc2)cc1,0.1,-13.6,-5.1%,-17.9,0.5,-5.1%
c1ccc(-c2cncn2-c2ccccc2)cc1,-10.3,-4.7,x,-9.6,2.8,3.6%

New compounds follow.
Structure,D2 PAM,Six1-Eya2 inh,gsp agonist,CtBP-E1A inh,D2 agonist,gsp antagonist
Cc1nc2nc[nH]n2c(=O)c1NS(=O)(=O)c1ccc([N+](=O)[O-])cc1,15.9,2.6,-8.4%[15.4 µM],3.6,-3.5,11.8%
COc1ccccc1NC(=O)C1=C(C)NC(=O)NC1c1cccs1 (stereo not drawn),-0.3,21.4,-6.3%[15.4 µM],x,4.8,0.1%
Cc1cc(C)cc(NS(=O)(=O)c2ccc3c(c2)c(=O)n(C)c(=O)n3C)c1,5.7,-28.5,25.1µM*,5.5,1.9,1.2%
CC(=O)N/C(=N/c1nc(C)cc(C)n1)Nc1cccc(C)c1,-7.5,3.1,-27.0%[15.4 µM],-12.7,1.4,-25.1%
O=c1cc[nH]c2cc(C(F)(F)F)ccc12,-2.3,-10.1,-42.8%[inhibitor],-5.0,0.6,9.0%
CCOc1ccccc1/C=N/Nc1nc2c(N)ncnc2n1[C@H]1O[C@@H](CO)[C@H](O)[C@@H]1O,-2.4,-8.4,u,x,-2.1,1.7%
CC1CCN(c2ccc3nnc(CCC(=O)N4CCN(c5ccc(F)cc5)CC4)n3n2)CC1,-12.3,-1.0,-20.8%,-1.2,0.7,-2.3%
O=C1CC(SC(=Nc2ccccc2)Nc2ccccc2)C(=O)N1c1ccc(Cl)cc1 (stereo not drawn),-25.5,-6.8,2.0%,-0.2,-4.3,-14.5%
NC(=O)CC(NC(=O)c1ccccc1)C(=O)O (stereo not drawn),-19.2,6.3,x,10.2,-2.1,9.4%
CC(=O)Nc1ccc(S(=O)(=O)NC2CC3CCC2C3)cc1 (stereo not drawn),-3.6,-1.7,-18.5%,0.0,-3.2,9.4%
O=c1c2ccccc2nc(-c2ccc(F)cc2)n1NCc1ccccc1O,-2.6,0.1,-61.1%[inhibitor],-1.9,-4.4,-1.4%
CCc1ccccc1NC(=O)CNC(=O)CNC(=O)C1CCCCC1,5.5,8.8,-1.1%,-10.1,0.3,10.6%

Carrying on.
Fields – D2 PAM	Six1-Eya2 inh	gsp agonist	CtBP-E1A inh	D2 agonist	gsp antagonist
- CCc1nc2ccccc2n1CC(O)COc1ccc(NC(C)=O)cc1 (stereo not drawn)
→ -25.2	-1.0	-0.3%	-2.3	-1.5	-15.8%
- c1ccc(C2OCC3(CO2)COC(c2ccccc2)OC3)cc1 (stereo not drawn)
→ -0.8	-1.4	-61.3%	5.5	0.3	7.2%
- Cc1[nH]nc2c1C(c1ccccc1F)CC(=O)N2 (stereo not drawn)
→ 9.2	3.2	-1.5%	-0.3	-1.4	15.6%
- Cc1cccc(Nc2n[nH]c(C)c2[N+](=O)[O-])c1
→ -14.3	-18.1	2.0%[15.4 µM]	0.0	-10.4	6.9%
- CCOC(=O)C1C(=O)C=C(c2ccc(C)cc2)CC1c1cccc([N+](=O)[O-])c1 (stereo not drawn)
→ -21.7	-6.4	-2.0%	-9.6	-3.1	-19.1%
- Cn1c(-c2ccc(F)cc2)cnc1NCc1ccccc1
→ -14.2	-2.5	u	-13.0	-2.1	2.1%
- COc1cc(OC)c(C(=O)O/N=C(\N)c2cccc(C)c2)cc1OC
→ 12.5	-28.8	-12.9%[15.4 µM]	-11.1	5.7	7.0%
- c1c(C2CCCCC2)n[nH]c1CN1CCCCC1
→ -42.4	6.6	9.0%	1.0	-0.6	-0.4%

Full records from above. Screens in order: D2 PAM, Six1-Eya2 inh, gsp agonist, CtBP-E1A inh, D2 agonist, gsp antagonist
Results for Cc1cccc(Nc2n[nH]c(C)c2[N+](=O)[O-])c1 : -14.3, -18.1, 2.0%[15.4 µM], 0.0, -10.4, 6.9%
Results for CCc1nc2ccccc2n1CC(O)COc1ccc(NC(C)=O)cc1 (stereo not drawn) : -25.2, -1.0, -0.3%, -2.3, -1.5, -15.8%
Results for Cc1[nH]nc2c1C(c1ccccc1F)CC(=O)N2 (stereo not drawn) : 9.2, 3.2, -1.5%, -0.3, -1.4, 15.6%
Results for c1ccc(C2OCC3(CO2)COC(c2ccccc2)OC3)cc1 (stereo not drawn) : -0.8, -1.4, -61.3%, 5.5, 0.3, 7.2%
Results for c1c(C2CCCCC2)n[nH]c1CN1CCCCC1 : -42.4, 6.6, 9.0%, 1.0, -0.6, -0.4%
